Rce1 inh: yeast Ras-converting enzyme inhibition | Q03530 | yeast membranes, quenched prenylated peptide cleavage fluorescence | calls only | 290,000 compounds, 0.27% hits;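 active = fall in fluorescence gain of 50% or more versus controls, with final raw signal at or below 3038400; inconclusive = same 50% fall but final raw signal above 3038400; inactive = fall in fluorescence gain under 50%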;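 also: plate controls were neutral control wells for no effect and wells lacking membranes for full effect; tested at 10 µM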
Target sequence (Q03530 whole entry, looked up): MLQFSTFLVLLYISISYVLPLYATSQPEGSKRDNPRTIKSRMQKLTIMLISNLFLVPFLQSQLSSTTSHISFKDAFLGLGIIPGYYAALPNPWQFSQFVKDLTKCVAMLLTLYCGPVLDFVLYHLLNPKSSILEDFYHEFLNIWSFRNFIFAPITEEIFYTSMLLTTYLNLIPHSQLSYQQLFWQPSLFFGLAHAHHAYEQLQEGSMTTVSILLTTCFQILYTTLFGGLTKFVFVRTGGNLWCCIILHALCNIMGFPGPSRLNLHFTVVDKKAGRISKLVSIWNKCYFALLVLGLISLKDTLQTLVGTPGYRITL
UUG fidelity: modulators of start codon recognition fidelity in yeast. S. cerevisiae UUG-firefly luciferase reporter, luminescence/redox ratio. activity score, % at 18.7 µM. 350,000 compounds, 0.13% hits;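 active = replicate mean at a twofold rise or more, about +100% in these data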;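 also: firefly luciferase made from a UUG start codon reports start codon fidelity; reporter light over untreated wells divided by growth signal over untreated wells; some hits fall short of that in this replicate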
CSC inhib: blocks cancer stem cells; AID 2717; 300,000 compounds, 1.1% hits; inhibition, % at 7.5 µM; cancer stem cell-like cells viability, luminescence;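 active = mean at 75% or more and at least half the replicates too; inconclusive = mean and replicates disagree; tested in HMLE shEcad cells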;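 also: 0% = median of negative and 100% = median of positive control wells; the first replicate is given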
MT1-MMP act inh: inhibitors of human MT1-MMP activation; GFP/RFP ratio change, % at 20 µM; 360,000 compounds, 0.061% hits; P50281; AID 651647; HT1080 RFP-PRO-GFP cells, GFP/RFP ratio fluorescence, overnight; percent of plate control window, DMSO zero;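 active = GFP/RFP ratio change of at least 30% with cell ATP level not reduced by more than half and red fluorescence within 50% of control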; also: strong numbers were not always called active
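Assay system: HT1080 cells carrying an RFP-PRO-GFP reporter | Dosing: Single dose of 20 µM compound, 1% DMSO final | Incubation: Cells overnight before dosing, compound overnight, 37 °C, 5% CO2 | Evaluation: GFP/RFP fluorescence ratio | Control set: DMSO and RFP-L50D-GFP cell wells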
eIF4H FP inh: inhibitors of RNA binding by human eIF4H; Q15056; eIF4H fluorescence polarization binding assay; inhibition, % at 35 µM; 290,000 compounds, 0.94% hits;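 active = 50% or more with normal probe brightness, or confirmed in later tests; inconclusive = above 50% with abnormal brightness, or retests that disagree; inactive = below 50% or failed in later tests; about a fifth of its hits are not listed in these tables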;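 also: calls also rest on retests at 20 µM and on dose response follow-up; 0% = protein and probe with vehicle and 100% = probe without protein; strong numbers were not always called active; many hits fall short of the cut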
PABP polyA inh: blocks human PABP binding to poly(A) RNA; inhibition, % at 35 µM; P11940; fluorescence polarization; 290,000 compounds, 1% hits;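 active = 50% or more with normal probe brightness, or confirmed in later tests; inconclusive = above 50% with abnormal brightness, or retests that disagree; inactive = below 50% or failed in later tests; about a fifth of its hits are not listed in these tables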;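 also: calls also rest on retests at 20 µM and on dose response follow-up; controls were probe without protein and protein plus probe with vehicle; some compounds called inactive have numbers as strong as hits; many hits fall short of the cut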
Target sequence (P11940 whole entry, looked up): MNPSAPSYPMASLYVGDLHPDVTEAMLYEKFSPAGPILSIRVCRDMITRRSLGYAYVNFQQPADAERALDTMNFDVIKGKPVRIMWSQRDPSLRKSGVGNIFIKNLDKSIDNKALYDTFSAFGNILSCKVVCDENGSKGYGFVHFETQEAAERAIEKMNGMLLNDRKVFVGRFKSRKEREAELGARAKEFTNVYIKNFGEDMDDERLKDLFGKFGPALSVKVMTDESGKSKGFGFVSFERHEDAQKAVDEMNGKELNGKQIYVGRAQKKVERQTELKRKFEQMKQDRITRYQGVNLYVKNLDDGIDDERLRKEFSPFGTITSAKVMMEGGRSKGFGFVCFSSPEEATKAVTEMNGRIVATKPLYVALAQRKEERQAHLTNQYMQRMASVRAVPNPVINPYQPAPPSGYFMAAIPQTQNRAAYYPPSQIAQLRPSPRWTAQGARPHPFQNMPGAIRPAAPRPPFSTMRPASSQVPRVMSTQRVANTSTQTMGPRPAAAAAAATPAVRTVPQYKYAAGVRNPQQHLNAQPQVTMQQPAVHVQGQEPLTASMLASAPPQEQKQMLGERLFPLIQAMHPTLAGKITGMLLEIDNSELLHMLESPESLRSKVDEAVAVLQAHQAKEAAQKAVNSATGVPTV
Env fusion inh: inhibitors of HIV Env-mediated cell fusion; HeLa-JRFL Env/CEM21 cell fusion, luciferase; 360,000 compounds, 1.1% hits; inhibition, % at 12.3 µM; AID 651610;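 active = mean replicate inhibition score of at least 50 and every replicate individually at or above 50; inconclusive = only one of the two criteria met; inactive = mean below 50 and not all replicates reaching 50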;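 also: 0% = plate neutral controls and 100% = maraviroc near 300 nM; one replicate is shown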
eIF4H FP inh retest: further read-out of eIF4H FP inh, marked with its call; inhibition, %; compound at 20 µM; confirmation average;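 mean of two retest wells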
PABP polyA inh retest: second read-out of PABP polyA inh, no call of its own (marks repeat the call); inhibition, %; compound at 20 µM; confirmation repeats;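 mean of two retest wells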
MT1-MMP act inh RFP: recorded beside MT1-MMP act inh, whose call it bears; RFP signal change, %; measured here: RFP expression control read;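 0 = vehicle wells; hits needed this value within 50% of zero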
* marks the source's active call; other numbers are inactive results; i = inactive; ? = inconclusive; / = not tested or not shown. Some of the compounds tested; rates above refer to the full screens.

SMILES	Rce1 inh	UUG fidelity	CSC inhib	MT1-MMP act inh	MT1-MMP act inh RFP	eIF4H FP inh	PABP polyA inh	Env fusion inh	others
Nc1nnnn1/N=C/c1cc(Cl)cc(Cl)c1O	i	-1	-12	-132	1	?	?	-4
O=C(Cn1c(-c2cscn2)nc2ccccc21)Nc1ccc2ccccc2c1	i	-7	-4	5	-10	-10	-7	/
COc1cccc(C2CC(=O)N3CN(c4cccc(Cl)c4C)CSC3=C2C#N)c1OC (stereo not given)	i	-18	7	3	3	8	36	/
COc1cccc(-c2c(-c3cc(OC)cc(OC)c3)n(C)c3ccc(-c4ccc5[nH]ccc5c4)cc23)c1	/	-11	15	-1	-6	/	/	19
C=CCc1cc(OC)ccc1OCCN1CC(C)OC(C)C1 (stereo not given)	i	6	/	0	4	2	15	-10
CCCc1nc2ccc(C)cn2c1Cc1ccc(C)cc1	/	8	/	-1	0	/	/	-124
COc1cccc(OC)c1C(=O)NC(=S)Nc1ccc2c(c1)C(=O)N(C)C2=O	i	/	-2	-1	3	-8	-4	-4
CCn1cc(C(=O)NCCOC)c(=O)c2ccc(C)nc21	i	4	-2	0	2	0	-3	-55
O=C(Nc1ccc(F)cc1)Nc1ccc(Cl)cn1	i	-18	-2	0	0	-6	1	-40
COc1cccc(NC(=S)N(CCCN2CCOCC2)C(C)c2cc3ccccc3o2)c1 (stereo not given)	i	-14	-6	5	-4	2	?	5
Cc1ccc(C)c(S(=O)(=O)N/N=C/c2cccnc2)c1	i	/	-6	-4	3	-4	2	/
Cc1ccccc1CNC(=O)c1cc2ccccc2o1	i	-14	-2	-1	-1	/	/	-39
Cc1ccccc1N1CC(C(=O)Nc2ccc3c(c2)OCO3)CC1=O (stereo not given)	i	-7	-10	0	-1	-6	11	-3
Cc1ccc(-c2cc(-c3ccco3)c3c(N)c(C(=O)NN)oc3n2)cc1	i	/	13	-76	6	?	?	-3
Cc1ccc(C(O)(C(=O)NNS(=O)(=O)c2ccc(C)cc2)c2ccc(C)cc2)cc1	i	/	4	-7	-1	-13	15	/
Cc1ccc(N2CC(C(=O)N3CCC(C(=O)Nc4ccc(Br)cc4)CC3)CC2=O)cc1 (stereo not given)	i	-6	-6	4	-9	-7	12	32
Cc1ccc(C)c(S(=O)(=O)Nc2ccccc2C(=O)Nc2ccc(S(=O)(=O)Nc3ncccn3)cc2)c1	i	4	5	1	4	0	-1	-8
CCC(NC(=O)/C(=C\c1ccc2c(c1)OCO2)NC(C)=O)C(=O)O (stereo not given)	i	/	-21	3	5	1	3	/
COc1cccc(NC(=O)CCS(=O)(=O)c2cccs2)c1	i	-12	-7	9	-6	-4	-7	/
COc1cc(C)ccc1S(=O)(=O)N1CCN(C23CC4CC(CC(C4)C2)C3)CC1	i	-7	46	3	0	-7	6	/
Cc1cccc(C(=O)N2CCN(CCNC(=O)C(=O)Nc3ccc(F)cc3)CC2)c1	i	-8	/	2	-3	-2	11	7
CCN(CC)C(=O)CC(c1ccc(N(C)C)cc1)c1c(O)cc(OC)cc1OC (stereo not given)	i	-18	-10	-5	1	34	15	-6
COc1ccc(Cc2nn3c(Cn4nnc5ccccc54)nnc3s2)cc1	i	-24	2	0	-3	6	3	-13
Cn1c(N)nc2nc[nH]c2c1=S	/	-2	/	3	5	/	/	-6
COCCn1c(C)cc(C(=O)COC(=O)c2ccc(NC(=O)CC#N)cc2)c1C	i	/	23	-8	1	?	?	/

By substructure, the compounds so far containing a cyano group (2)
SMILES	Rce1 inh	UUG fidelity	CSC inhib	MT1-MMP act inh	MT1-MMP act inh RFP	eIF4H FP inh	PABP polyA inh	Env fusion inh	others
COc1cccc(C2CC(=O)N3CN(c4cccc(Cl)c4C)CSC3=C2C#N)c1OC (stereo not given)	i	-18	7	3	3	8	36	/
COCCn1c(C)cc(C(=O)COC(=O)c2ccc(NC(=O)CC#N)cc2)c1C	i	/	23	-8	1	?	?	/

Looked up by structure from above, 2 records:
SMILES	Rce1 inh	UUG fidelity	CSC inhib	MT1-MMP act inh	MT1-MMP act inh RFP	eIF4H FP inh	PABP polyA inh	Env fusion inh	others
CCn1cc(C(=O)NCCOC)c(=O)c2ccc(C)nc21	i	4	-2	0	2	0	-3	-55
Cc1ccccc1N1CC(C(=O)Nc2ccc3c(c2)OCO3)CC1=O (stereo not given)	i	-7	-10	0	-1	-6	11	-3

Continuation:
SMILES	Rce1 inh	UUG fidelity	CSC inhib	MT1-MMP act inh	MT1-MMP act inh RFP	eIF4H FP inh	PABP polyA inh	Env fusion inh	others
Cc1cc(NC(=O)OC(C)C)ccc1-c1ccc(NC(=O)OC(C)C)cc1C	i	-10	-7	1	-2	3	2	-29
Cc1cccc2cc(CN(Cc3ccc(F)cc3)C(=O)C(F)(F)F)c3nnnn3c12	i	/	-10	-3	2	0	-8	9
Fc1ccc(C(c2nnnn2C2CCCC2)N(Cc2ccco2)CC2CCCO2)cc1 (stereo not given)	i	-3	-2	-11	-10	-14	-13	/
COc1cccc(CN(C(=O)c2cc3ccccc3oc2=O)C2CC2)c1	i	-13	-7	-1	-7	-3	-4	-19
O=C(N/N=C/c1ccc([N+](=O)[O-])o1)c1ccc2c(c1)OCO2	i	5	-13	-6	-19	79*	39*	11	eIF4H FP inh retest=83*;PABP polyA inh retest=67*
C=CCOC(=O)CN1C(=O)c2ccccc2C1=O	i	17	-12	2	1	7	-2	18
Cc1ccc(-c2ccc(NC(=O)C3C4C=CC(C4)C3C(=O)O)cc2)o1 (stereo not given)	i	-24	9	-4	-6	-8	-2	-121
O=C(NC1CCS(=O)(=O)C1)c1c(NC(=O)C2COc3ccccc3O2)sc2c1CCCC2 (stereo not given)	i	/	-6	/	/	-3	-6	/
O=C(Cn1c(NCCO)nc2ccccc21)c1ccc(Cl)cc1Cl	i	-22	-1	-3	1	-6	4	14
Cc1nnc(SCC(=O)c2cc(C)n(-c3c(C)n(C)n(-c4ccccc4)c3=O)c2C)s1	i	-1	6	2	4	6	-4	-10
COc1ccc(OC(C)c2nnc(N)s2)cc1 (stereo not given)	i	-16	-10	3	3	-1	5	-3
CCC1CCCCN1CC(=O)c1c(C)[nH]c2cc(C)ccc12 (stereo not given)	i	-11	-4	-1	3	12	3	31
N#CC1=C(SCC(=O)c2cc3ccccc3oc2=O)NC(=O)C(C#N)C12CCCC2 (stereo not given)	i	2	-11	-184	0	?	28	/
Cc1ccccc1OCc1n[nH]c(=S)n1-c1ccccc1	i	-13	-11	0	-1	-3	-4	-2
COc1ccc(C2=C(C)CC(C)(C)NC2=O)cc1OC	i	3	/	0	1	3	-4	/
O=C(Nc1ccccc1)N1CCc2ccccc21	i	-34	14	-2	3	5	1	-227
Cc1ccccc1N(CC(=O)NCCSC1CCCCC1)S(=O)(=O)c1ccccc1	i	-18	8	2	-5	-12	0	19
CSCCC1NC(=O)N(CC(=O)Nc2c(Cl)cc(Cl)cc2Cl)C1=O (stereo not given)	i	-24	2	-1	0	10	-4	/
COc1ccc(NC(=O)COC(=O)CCCc2c[nH]c3ccccc23)cc1	i	-3	-6	16	5	4	7	-9
CCC(C)N1C(=O)CCC1C(=O)NCCc1ccc(Cl)cc1 (stereo not given)	i	-12	0	2	2	-5	7	-1
COc1ccccc1N1CCN(CC(C)N(C(=O)C2CCCCC2)c2ccccn2)CC1 (stereo not given)	i	0	-27	-9	-2	-9	0	16
CCS(=O)(=O)c1ccc2oc(SCC(=O)NCCc3ccc(F)cc3)nc2c1	i	/	2	-3	-9	-1	7	-7
CC(=O)c1cccc(CN2CCN(C(C)C)C(CCO)C2)c1 (stereo not given)	i	/	-4	-1	3	1	-5	-16
OC(c1ccc2ccccc2c1)c1ncc(-c2cccc3ccccc23)[nH]1 (stereo not given)	/	-19	/	1	1	/	/	-6
CN(CC(=O)Nc1ccc(F)cc1)C(=O)C1Cc2ccccc2CN1S(C)(=O)=O (stereo not given)	/	-8	/	1	0	/	/	0

7 compounds already listed, arranged by heavy-atom count, low to high:
SMILES	Rce1 inh	UUG fidelity	CSC inhib	MT1-MMP act inh	MT1-MMP act inh RFP	eIF4H FP inh	PABP polyA inh	Env fusion inh	others
C=CCOC(=O)CN1C(=O)c2ccccc2C1=O	i	17	-12	2	1	7	-2	18
COc1ccc(C2=C(C)CC(C)(C)NC2=O)cc1OC	i	3	/	0	1	3	-4	/
Cc1ccccc1OCc1n[nH]c(=S)n1-c1ccccc1	i	-13	-11	0	-1	-3	-4	-2
COc1ccc(NC(=O)COC(=O)CCCc2c[nH]c3ccccc23)cc1	i	-3	-6	16	5	4	7	-9
CN(CC(=O)Nc1ccc(F)cc1)C(=O)C1Cc2ccccc2CN1S(C)(=O)=O (stereo not given)	/	-8	/	1	0	/	/	0
N#CC1=C(SCC(=O)c2cc3ccccc3oc2=O)NC(=O)C(C#N)C12CCCC2 (stereo not given)	i	2	-11	-184	0	?	28	/
O=C(NC1CCS(=O)(=O)C1)c1c(NC(=O)C2COc3ccccc3O2)sc2c1CCCC2 (stereo not given)	i	/	-6	/	/	-3	-6	/

Continuation.
SMILES	Rce1 inh	UUG fidelity	CSC inhib	MT1-MMP act inh	MT1-MMP act inh RFP	eIF4H FP inh	PABP polyA inh	Env fusion inh	others
COc1ccc(N2CCN(C(=O)c3cccc(Br)c3)CC2)c([N+](=O)[O-])c1	i	/	9	3	-4	-15	-9	10
Cn1c2ccccc2n2c(=O)c(=O)n(CC(=O)c3ccc(F)cc3)nc12	i	-14	0	-1	-1	-1	-7	17
CC(C)C[C@H](NC(=O)c1[nH]cnc1C(=O)Nc1ccc(CNC(=O)OC(C)(C)C)cc1)C(=O)OC(C)(C)C	i	-9	28	-22	-24	9	-6	0
O=C1N(O)C2(C=CCCC2)/C(=N\O)C12CCCCC2 (stereo not given)	i	-15	20	1	6	-9	-4	-50
CCN(CC)C(=O)[C@H]1C[C@H](CC(=O)NCCc2ccccn2)C(=O)N2CCc3c([nH]c4cc(-c5ccco5)ccc34)[C@]12C	/	2	/	-1	-2	/	/	-6
CC(=O)Nc1cccc(-c2csc(C(O)c3ccc(F)cc3)n2)c1 (stereo not given)	/	-8	/	5	0	/	/	12
O=C(Oc1ccc([N+](=O)[O-])cc1)c1cc(-c2ccccc2)nc2ccccc12	i	-19	2	-1	1	-2	-8	/
O=C(COC(=O)c1cccc(-n2cnnn2)c1)c1ccccc1	i	-18	-21	0	2	-21	-3	/
O=C(NCC1COc2ccccc2O1)c1cccc(S(=O)(=O)N2CCCCC2)c1 (stereo not given)	/	4	4	5	-9	/	/	/
CCCC(C)NCC(=O)Nc1ccccc1-c1ccccc1 (stereo not given)	i	5	-11	0	-3	16	8	-85
CCOC(=O)c1c(-c2ccccc2)csc1/N=C/C1C(=O)CCCC1=O	i	/	6	-19	5	?	1	/
O=C(NC12CC3CC(CC(C3)C1)C2)N1CCN(C(=O)c2ccco2)CC1	i	-7	12	/	/	-1	-12	-13
Cc1ccc(NC(=O)c2sc(N)nc2-c2ccc([N+](=O)[O-])cc2)cc1C	i	-11	-8	5	4	-9	-3	-10
Clc1ccc(/C(Cc2nc3ccccc3[nH]2)=N\Nc2ccccc2)cc1	i	/	12	-3	-10	5	-14	-26
COCCNC(=O)CN(c1ccccc1OC)S(C)(=O)=O	i	-15	0	-6	4	-4	-2	-23

Assay outcomes as filed in PubChem.
